Screening results: PubChem, Broad Institute
MLL AF4-AF9 inh = inhibitors of human MLL-AF4/AF9 interaction. P42568. AlphaScreen, biotin-AF4 peptide binding to FLAG-AF9. inhibition, % at 10 µM. 0.47% of 350,000 active. AID 651704;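 active = every replicate reaching a set inhibition limit, whatever the replicate mean, cut at about 25% in these data; inconclusive = mean inhibition reaches that limit but some replicates miss it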;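 also: 0% = plate neutral control median and 100% = total signal loss; the record names both 10 and 1 µM as test concentration; the first replicate is given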
Target sequence (P42568 whole entry, looked up): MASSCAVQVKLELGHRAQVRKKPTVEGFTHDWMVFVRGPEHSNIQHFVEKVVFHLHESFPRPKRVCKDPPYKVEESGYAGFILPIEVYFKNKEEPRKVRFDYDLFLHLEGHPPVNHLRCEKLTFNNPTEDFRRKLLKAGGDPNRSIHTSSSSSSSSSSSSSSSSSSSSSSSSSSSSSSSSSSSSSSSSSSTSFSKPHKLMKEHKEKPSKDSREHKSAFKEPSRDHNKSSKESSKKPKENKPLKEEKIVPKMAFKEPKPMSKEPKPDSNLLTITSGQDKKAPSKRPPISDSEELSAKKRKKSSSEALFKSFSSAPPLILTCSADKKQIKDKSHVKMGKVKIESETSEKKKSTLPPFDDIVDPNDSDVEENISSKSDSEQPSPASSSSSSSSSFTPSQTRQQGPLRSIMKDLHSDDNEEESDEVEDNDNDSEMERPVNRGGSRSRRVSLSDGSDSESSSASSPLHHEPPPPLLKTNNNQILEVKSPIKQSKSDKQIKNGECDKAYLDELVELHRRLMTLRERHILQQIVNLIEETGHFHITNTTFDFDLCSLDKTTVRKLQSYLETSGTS
FGF22 binding = binders of recombinant human FGF22 by thermal shift. Q9HCT0. SYPRO orange fluorescence; percent of sucrose octasulfate shift, DMSO zero. calls only at 9.99 µM. 1.5% of 340,000 active. AID 651658;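 active = melting point raised past a set limit in the mean and every replicate; inconclusive = no clear call; three in four hits are not shown here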
Target sequence (Q9HCT0 whole entry, looked up): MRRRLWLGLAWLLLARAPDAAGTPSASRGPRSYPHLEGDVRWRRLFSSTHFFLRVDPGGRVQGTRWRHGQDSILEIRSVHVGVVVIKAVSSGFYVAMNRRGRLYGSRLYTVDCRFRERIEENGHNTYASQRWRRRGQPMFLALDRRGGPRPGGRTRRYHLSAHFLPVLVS
Starred values were filed as active, the others as inactive; i = inactive; ? = inconclusive. Some of the compounds tested; the hit share may differ from the screen's.

structure,MLL AF4-AF9 inh,FGF22 binding
Cc1ccc(S(=O)(=O)Nc2cccc3c2O[C@@H](CN(C)Cc2ccccc2)[C@@H](C)CN([C@H](C)CO)C3=O)cc1,-0.9,i
CCC(=O)N1[C@@H]2c3cccc(=O)n3C[C@H]1[C@H](CO)[C@H]2C(=O)N1CCc2ccccc2C1,-6.6,i
CN(C)C(=O)c1cccc(-c2ccc([C@@H]3[C@@H](CO)N4C(=O)CN(C(=O)Cc5ccccc5)C[C@@H]34)cc2)c1,-2.1,i
COc1ccc(NC(=O)N(C)C[C@@H]2Oc3ccc(NC(=O)NC4CCCCC4)cc3C(=O)N([C@H](C)CO)C[C@H]2C)cc1,-1.7,i
CCCNC(=O)C[C@@H]1CC[C@H]2[C@@H](COc3ccc(NS(=O)(=O)CC)cc3C(=O)N2C)O1,-0.9,i
CC(C)NC(=O)Nc1cccc2c1O[C@H](CN(C)Cc1ccc3c(c1)OCO3)[C@@H](C)CN([C@@H](C)CO)C2=O,1.6,i
COc1ccc(NC(=O)N(C)C[C@H]2Oc3c(NS(=O)(=O)c4c(C)noc4C)cccc3C(=O)N([C@H](C)CO)C[C@H]2C)cc1,-2.6,i
C[C@@H]1CN([C@@H](C)CO)C(=O)c2ccccc2-c2ccccc2CO[C@@H]1CN(C)S(=O)(=O)c1ccccc1F,2.7,i
O=C(Nc1ccc2c(c1)[C@H]1C[C@@H](CC(=O)N3CCc4ccccc4C3)O[C@@H](CO)[C@H]1O2)Nc1ccccc1F,-3.5,i
C[C@H](CO)N1C[C@H](C)[C@H](CN(C)Cc2ccncc2)Oc2c(NC(=O)NC3CCCCC3)cccc2C1=O,0.0,i
C[C@@H]1CN([C@@H](C)CO)C(=O)Cc2cc(NC(=O)Nc3ccc4c(c3)OCO4)ccc2O[C@@H]1CN(C)Cc1ccc(Cl)c(Cl)c1,1.0,i
CCCNC(=O)N(C)C[C@@H]1Oc2cc(-c3ccc(C)cc3)ccc2S(=O)(=O)N([C@@H](C)CO)C[C@H]1C,-0.5,i
O=C(C[C@@H]1C=C[C@H](NC(=O)Nc2ccc3c(c2)OCO3)[C@H](CO)O1)NCc1ccc(F)cc1,-0.3,i
C[C@@H]1CCCCO[C@H](CN(C)S(=O)(=O)c2cn(C)cn2)[C@H](C)CN([C@H](C)CO)C(=O)c2cc(NS(C)(=O)=O)ccc2O1,-6.9,i
O=C(C[C@H]1C[C@H]2c3cc(NC(=O)c4ccc5c(c4)OCO5)ccc3O[C@H]2[C@H](CO)O1)NCc1ccccn1,2.1,i
O=C(C[C@@H]1C=C[C@@H](NS(=O)(=O)c2ccc(F)cc2)[C@H](CO)O1)NCCc1ccncc1,-2.0,i
O=C(C[C@@H]1CC[C@H]2[C@@H](COC[C@H](O)CN2C(=O)c2ccccc2F)O1)N1CCCCC1,-0.8,i
COc1ccc(S(=O)(=O)N(C)C[C@@H]2OCCCC[C@H](C)Oc3ccc(NC(=O)c4ccccc4)cc3C(=O)N([C@H](C)CO)C[C@H]2C)cc1,3.3,i
Cc1ccccc1S(=O)(=O)N[C@H]1CC[C@H](CCn2cc(-c3ccccc3)nn2)O[C@@H]1CO,-2.2,i
COc1ccccc1CNC(=O)C[C@@H]1C[C@H]2c3cc(NC(=O)c4ccc5c(c4)OCO5)ccc3O[C@H]2[C@H](CO)O1,?,i
C[C@H](CO)N1C[C@H](C)[C@H](CN(C)S(=O)(=O)c2ccccc2)Oc2c(NC(=O)c3ccc(-c4nccs4)cc3)cccc2C1=O,-2.2,i
CO[C@H](CN(C)Cc1ccc2c(c1)OCO2)[C@@H](C)CN(C(=O)c1ccccc1)[C@@H](C)CO,0.4,i
COc1ccc(NC(=O)N(C)C[C@@H]2OCCCC[C@H](C)Oc3ccc(NS(=O)(=O)c4cn(C)cn4)cc3C(=O)N([C@H](C)CO)C[C@H]2C)cc1,0.9,i
CC(=O)N(C)C[C@@H]1Oc2cc(C#Cc3ccccn3)ccc2S(=O)(=O)N([C@@H](C)CO)C[C@@H]1C,0.7,i
O=C(C[C@@H]1C[C@@H]2c3cc(NC(=O)CC4CC4)ccc3O[C@@H]2[C@@H](CO)O1)NCc1ccccc1F,-0.4,i

Given with values under each structure: 2 of the compounds above
Screens in order: MLL AF4-AF9 inh	FGF22 binding
> COc1ccc(S(=O)(=O)N(C)C[C@@H]2OCCCC[C@H](C)Oc3ccc(NC(=O)c4ccccc4)cc3C(=O)N([C@H](C)CO)C[C@H]2C)cc1
  3.3	i
> Cc1ccccc1S(=O)(=O)N[C@H]1CC[C@H](CCn2cc(-c3ccccc3)nn2)O[C@@H]1CO
  -2.2	i

Back to the main list, starting four compounds before the break.
structure,MLL AF4-AF9 inh,FGF22 binding
CO[C@H](CN(C)Cc1ccc2c(c1)OCO2)[C@@H](C)CN(C(=O)c1ccccc1)[C@@H](C)CO,0.4,i
COc1ccc(NC(=O)N(C)C[C@@H]2OCCCC[C@H](C)Oc3ccc(NS(=O)(=O)c4cn(C)cn4)cc3C(=O)N([C@H](C)CO)C[C@H]2C)cc1,0.9,i
CC(=O)N(C)C[C@@H]1Oc2cc(C#Cc3ccccn3)ccc2S(=O)(=O)N([C@@H](C)CO)C[C@@H]1C,0.7,i
O=C(C[C@@H]1C[C@@H]2c3cc(NC(=O)CC4CC4)ccc3O[C@@H]2[C@@H](CO)O1)NCc1ccccc1F,-0.4,i
CC(=O)N1CC2(C1)[C@@H](c1ccccc1)[C@@H](CO)N2Cc1cc(F)ccc1F,-1.2,i
COc1ccccc1-c1cnc2c(c1)C(=O)N([C@@H](C)CO)C[C@H](C)[C@@H](CN(C)Cc1cccnc1)O2,-2.6,i
C[C@@H]1CN([C@@H](C)CO)C(=O)c2cccc(NS(=O)(=O)c3ccc(F)cc3)c2O[C@H]1CN(C)Cc1ccc(-c2ccccc2)cc1,2.1,i
O=C(NC[C@@H]1[C@@H](c2ccccc2)[C@@H](CO)N1C(=O)Cc1ccncc1)C1CCC1,-1.2,i
C[C@@H]1CN([C@@H](C)CO)C(=O)c2cc(NC(=O)CCN3CCOCC3)ccc2O[C@@H]1CN(C)Cc1ccc(C(=O)O)cc1,-0.2,i
CC(C)NC(=O)N(C)C[C@@H]1Oc2c(cccc2N(C)C)C(=O)N([C@H](C)CO)C[C@H]1C,-2.4,i
C[C@@H]1CN([C@@H](C)CO)S(=O)(=O)c2ccc(C3=CCCCC3)cc2O[C@@H]1CN(C)C(=O)c1ccc(F)cc1,4.0,i
CO[C@H]1CN(C)C(=O)c2cc(NC(=O)Nc3cc(F)ccc3F)ccc2OC[C@H](C)NC[C@@H]1C,-6.4,i
COc1ccc(NC(=O)Nc2ccc3c(c2)C(=O)N([C@@H](C)CO)C[C@H](C)[C@@H](CN(C)C(=O)Nc2ccc(F)cc2)OCCCC[C@H](C)O3)cc1,1.8,i
O=C(NCC[C@H]1CC[C@H](NC(=O)C2CCCC2)[C@H](CO)O1)c1cc(Cl)cc(Cl)c1,2.6,i
O=C(C[C@@H]1C[C@H]2c3cc(NC(=O)CC4CC4)ccc3O[C@H]2[C@H](CO)O1)NCc1ccc(Cl)cc1,-0.4,i
Cc1ccc(S(=O)(=O)N(C)C[C@@H]2OCCCC[C@H](C)Oc3ccc(NS(=O)(=O)c4ccc(Cl)cc4)cc3C(=O)N([C@H](C)CO)C[C@@H]2C)cc1,-1.5,i
O=C(C[C@@H]1CC[C@H](NC(=O)c2ccc3c(c2)OCO3)[C@@H](CO)O1)NC1Cc2ccccc2C1,-0.9,i
CCNC(=O)C[C@H]1CC[C@H]2[C@@H](COc3ccc(NC(=O)Nc4ccc(F)cc4)cc3C(=O)N2C)O1,-0.6,i
Cc1noc(C)c1S(=O)(=O)Nc1ccc2c(c1)C(=O)N([C@@H](C)CO)C[C@H](C)[C@@H](CN(C)Cc1ccc(C(=O)Nc3ccccc3N)cc1)OCCCC[C@@H](C)O2,2.5,i
CO[C@@H]1CN(C)C(=O)c2cc(NC(C)=O)ccc2OC[C@@H](C)N(Cc2cncnc2)C[C@@H]1C,-4.3,i
C[C@@H]1CN([C@@H](C)CO)C(=O)Cc2cc(NS(=O)(=O)c3ccc(F)cc3)ccc2O[C@H]1CN(C)Cc1ccncc1,2.3,i
O=C(N[C@@H]1CC[C@@H](CCNC(=O)C2CCCCC2)O[C@H]1CO)c1ccccn1,0.6,i
C[C@@H]1CCCCO[C@H](CN(C)Cc2ccc(C(=O)O)cc2)[C@@H](C)CN([C@H](C)CO)C(=O)c2cc(NC(=O)c3ccncc3)ccc2O1,-2.0,i
COc1ccc(NC(=O)N(C)C[C@@H]2Oc3c(NC(=O)NC4CCCCC4)cccc3C(=O)N([C@@H](C)CO)C[C@H]2C)cc1,1.1,i
Cc1ccc(S(=O)(=O)N(C)C[C@H]2Oc3c(cccc3N(C)C)C(=O)N([C@@H](C)CO)C[C@@H]2C)cc1,-0.1,i
COc1ccc(S(=O)(=O)N(C)C[C@H]2Oc3ccc(NS(=O)(=O)c4ccc(F)cc4)cc3CC(=O)N([C@@H](C)CO)C[C@@H]2C)cc1,0.7,i
CCS(=O)(=O)N1CCCCN2[C@H](CO)[C@H](c3ccc(C#Cc4ccccc4OC)cc3)[C@@H]2C1,-3.6,i
CC(C)CC#Cc1ccc([C@@H]2[C@@H](CO)N3C(=O)CN(C(=O)Cc4cccnc4)C[C@@H]23)cc1,2.2,i
C[C@@H]1CN([C@@H](C)CO)C(=O)c2cccc(NC(=O)Nc3ccc4c(c3)OCO4)c2O[C@@H]1CN(C)S(C)(=O)=O,0.6,i

structure,MLL AF4-AF9 inh,FGF22 binding
CO[C@@H]1CN(C)C(=O)c2cc(NC(=O)c3ccccc3F)ccc2OC[C@H](C)N(CC2CC2)C[C@H]1C,0.2,i
Cc1cccc(-c2ccc([C@H]3[C@H](CO)N4CCCCN(Cc5ccncc5)C[C@@H]34)cc2)c1,-13,i
C[C@@H]1CN([C@@H](C)CO)C(=O)c2cc(C#Cc3ccccc3F)cnc2O[C@H]1CN(C)C(=O)C1CCC1,2.6,i
C[C@@H]1CCCCO[C@H](CN(C)Cc2ccccc2)[C@H](C)CN([C@@H](C)CO)C(=O)c2cc(NC(=O)Nc3ccc(F)cc3)ccc2O1,9.2,i
COc1ccccc1C#Cc1ccc([C@@H]2[C@@H](CO)N3CCCCN(C(=O)C4CC4)C[C@@H]23)cc1,-4.3,i
Cc1cc2c(c(=O)o1)[C@@]1(C(=O)N(c3ccccc3)c3ccccc31)C1=C(CCCC1=O)O2,0.6,i
Cc1noc(C)c1NC(=O)N[C@H]1C=C[C@H](CC(=O)Nc2ccccc2)O[C@H]1CO,-0.2,i
C[C@@H]1CN([C@H](C)CO)C(=O)c2cc(NC(=O)c3ccccc3)ccc2O[C@@H](C)CCCCO[C@H]1CN(C)C(=O)CCC(F)(F)F,-10,i
CCC(=O)Nc1ccc2c(c1)OC[C@@H](C)NC[C@H](C)[C@@H](OC)CN(C)C2=O,0.1,i
CCCC(=O)Nc1ccc2c(c1)C(=O)N(C)C[C@H](OC)[C@@H](C)CN(Cc1cccc(F)c1)[C@H](C)CO2,2.0,i
C[C@@H]1CN([C@H](C)CO)S(=O)(=O)c2ccc(C#CC3CCCCC3)cc2O[C@@H]1CN(C)C,14,i
CO[C@@H]1CN(C)C(=O)c2cc(NC(=O)C3CCOCC3)ccc2OC[C@@H](C)N(Cc2cccnc2)C[C@H]1C,-1.3,i
CC(C)NC(=O)Nc1ccc2c(c1)C(=O)N([C@H](C)CO)C[C@@H](C)[C@@H](CN(C)C(=O)Nc1ccc3c(c1)OCO3)O2,-1.6,i
COc1ccc2c3c([nH]c2c1)[C@@H](CO)N(C(=O)c1ccccc1)CC31CN(C(=O)Nc2cccc(F)c2)C1,0.4,i
C[C@H]1CN([C@@H](C)CO)C(=O)c2cc(Br)cnc2O[C@@H]1CN(C)C(=O)C1CCOCC1,-1.1,i
CCCC#Cc1ccc2c(c1)O[C@@H](CN(C)C(C)=O)[C@@H](C)CN([C@@H](C)CO)S2(=O)=O,1.3,i
C/C=C/c1ccc2c(c1)O[C@@H](CN(C)C(=O)Cc1cccnc1)[C@H](C)CN([C@@H](C)CO)S2(=O)=O,-1.4,i
CO[C@H]1CC[C@@H]2CCN(C)C(=O)CC3(CCCCC3)CN(C)C(=O)c3cccc(C#N)c3OC[C@H]1O2,1.1,i
O=C(C[C@@H]1CC[C@H]2[C@@H](COC[C@@H](O)CN2Cc2cc(F)cc(F)c2)O1)NCc1cccc(F)c1,-2.4,i
COc1cccc(S(=O)(=O)Nc2ccc3c(c2)[C@H]2C[C@@H](CC(=O)N4CCCCC4)O[C@@H](CO)[C@H]2O3)c1,0.7,i
Cc1ccc(S(=O)(=O)N[C@H]2CC[C@@H](CCNC(=O)c3ccccc3F)O[C@@H]2CO)cc1,-1.0,i
C[C@@H]1CN([C@@H](C)CO)C(=O)Cc2cc(NS(=O)(=O)c3ccc(F)cc3)ccc2O[C@@H]1CN(C)CC1CC1,-1.9,i
C[C@H](CO)N1C[C@H](C)[C@H](CN(C)C(=O)Nc2ccccc2)Oc2ncc(C#CCN(C)C)cc2C1=O,-2.5,i
O=C1CSCN1c1ccccc1,-2.0,i
CO[C@@H]1CN(C)C(=O)c2cc(NC(=O)c3ccc(F)cc3)ccc2OC[C@@H](C)N(C(=O)c2ccc(F)cc2)C[C@@H]1C,1.3,i
COc1ccccc1CN1[C@H](CO)[C@@H]2c3ccccc3N(C(=O)C3CC3)C[C@@H]21,0.1,i
CO[C@@H]1CN(C)C(=O)c2ccc(NC(=O)C3CCC3)cc2OC[C@@H](C)N(C(=O)c2ccccc2)C[C@H]1C,-1.5,i
Cc1ccc(S(=O)(=O)N(C)C[C@H]2OCCCC[C@@H](C)Oc3ccc(NC(=O)Nc4ccc(C(F)(F)F)cc4)cc3C(=O)N([C@@H](C)CO)C[C@@H]2C)cc1,0.4,i
